MBNL1-CUG inh – blocks human MBNL1 binding to CUG repeat RNA; Q9NR56; TR-FRET MBNL1-His/biotin-(CUG)12 binding, 665/545 ratio; Potency, µM (top dose mostly 57.5 µM), for the others: at the top dose activity change, negative = inhibition, hits mostly inhibitors; 280,000 tested, 0.036% active; AID 2675; active = well fitted inhibition curve with a large enough effect in the signal ratio, with a control signal flat, not every such curve was filed as active; inconclusive = small, poorly fitted or top-dose-only effect, or effect the other way, or a change in a side signal; inactive = no such curve, though single readings can be large or run the other way; the % refers to the signal ratio; also: potency is read from the fitted curve at half-maximal effect; % is scaled to controls: 0 for no effect and ±100 for the full control effect
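Inhibition of protein-RNA binding appears as loss of TR-FRET between terbium anti-His antibody on MBNL1-His and streptavidin-XL665 on biotin-(CUG)12. Activity is normalized to buffer-only and uninhibited-complex controls.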
Mito fusion act – mitochondrial division inhibition or fusion activation. S. cerevisiae fusion-defective mutant growth rescue, CellTiterGlo 48 h. Potency, µM (doses to about 46.1 µM), for the others: at the highest dose growth rescue (activation), hits mostly activators. 320,000 tested, 0.23% active;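 also: potency is read from the fitted curve at half-maximal effect; % of control where 0% means no effect; nearly all actives have a fitted effect of over 45% in size; temperature-sensitive fusion mutants such as fzo1-1 at 37 °C on non-fermentable ethanol glycerol medium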
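Temperature-sensitive fusion-defective S. cerevisiae (e.g. fzo1-1, mgm1-5) were grown with compound in YPEG medium (3% ethanol, 3% glycerol) for 48 hours at 37C. Growth rescue was measured as viability by CellTiterGlo luminescence after 10 minutes at ambient.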
Menin MLL FP TR – menin-MLL binding inhibition, Texas Red mutant peptide. O00255. Menin + Texas Red MLL mutant peptide, fluorescence polarization. Potency, µM (highest dose often 61.6 µM), for inactives: at the top dose FP activity change, negative = inhibition, most hits filed as inhibitors. 270,000 tested, 0.23% active. AID 1768; active = well fitted inhibition curve with a large enough effect in the polarisation, with a control signal flat, not every such curve was filed as active; inconclusive = small, poorly fitted or top-dose-only effect, or effect the other way, or a change in a side signal; inactive = no such curve, though single readings can be large or run the other way; the % refers to the polarisation; also: potency is read from the fitted curve at half-maximal effect; % of control where 0% means no effect; many of its hits are not listed in these tables
Target sequence (O00255 whole entry, looked up): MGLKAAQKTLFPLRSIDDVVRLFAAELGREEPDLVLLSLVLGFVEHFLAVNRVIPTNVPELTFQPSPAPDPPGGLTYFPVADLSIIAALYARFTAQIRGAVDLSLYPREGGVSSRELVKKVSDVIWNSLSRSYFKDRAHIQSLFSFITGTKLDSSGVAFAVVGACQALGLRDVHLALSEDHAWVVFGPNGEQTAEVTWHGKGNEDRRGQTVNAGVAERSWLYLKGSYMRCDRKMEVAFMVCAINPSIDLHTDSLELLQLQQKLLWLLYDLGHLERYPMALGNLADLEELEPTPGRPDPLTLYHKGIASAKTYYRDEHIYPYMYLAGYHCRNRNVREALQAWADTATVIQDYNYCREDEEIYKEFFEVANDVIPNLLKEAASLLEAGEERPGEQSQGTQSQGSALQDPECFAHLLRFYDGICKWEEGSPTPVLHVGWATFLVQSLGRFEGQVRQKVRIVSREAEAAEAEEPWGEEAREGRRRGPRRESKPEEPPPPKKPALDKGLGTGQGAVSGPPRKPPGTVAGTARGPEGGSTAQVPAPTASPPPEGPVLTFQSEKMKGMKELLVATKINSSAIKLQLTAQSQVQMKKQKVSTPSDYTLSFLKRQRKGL
NPC1 promoter act – activates the NPC1 promoter. AID 485313. Huh7 NPC1 promoter luciferase reporter, 24 h. 320,000 tested, 2.4% active. Potency, µM (series often up to 9.22 µM), for inactives: at the top dose activation, most hits filed as activators;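 also: potency is read from the fitted curve at half-maximal effect; % of control where 0% means no effect; nearly all actives have a fitted effect of over 60% in size; reporter is driven by a mutant NPC1 promoter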
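Quantitative HTS used a cell-based reporter: Huh7 cells stably bearing the NPC1 promoter upstream of luciferase were treated with compounds for 24 h, and promoter activation was read as luminescence.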
Gal4-VP16 FLuc – counter-screen for ROR gamma inhibitors: Gal4-VP16 reporter | Drosophila S2 Gal4-VP16 UAS-luciferase, luminescence, 20 h | Potency, µM (top dose mostly 53.6 µM), without a hit: at the top dose activity, negative = inhibition, usual class: inhibitors | 310,000 tested, 3.5% active | AID 2546;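 also: Gal4-VP16 expression switched on by copper sulfate through the metallothionein promoter; potency is read from the fitted curve at half-maximal effect; % is scaled to controls: 0 for no effect and ±100 for the full control effect; nearly all actives have a fitted effect of over 50% in size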
ELG1 repair inh – ELG1-dependent DNA repair inhibition | Potency, µM (top dose mostly 46.1 µM), for the others: top-dose activity change, negative = inhibition, most hits filed as inhibitors | AID 504467 | 330,000 tested, 2.3% active | HEK293T ELG1-luciferase reporter, luminescence, 16 h; DNA damage induced by 5-fluorouridine; also: potency is read from the fitted curve at half-maximal effect; % is scaled to controls: 0 for no effect and ±100 for the full control effect; nearly all actives have a fitted effect of over 55% in size
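In this reporter screen, reduction of luminescence relative to DMSO vehicle indicated activity. Compounds and 5-fluorouridine were added together to 2,000 cells per well, incubated for 16 hr at 37 °C, then developed with ONE-Glo.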
FLuc modulator – inhibits or activates purified firefly luciferase, miR-21 counter-screen; P08659; purified FLuc, Km substrates, luminescence inhibition; Potency, µM (series often up to 57.5 µM), for inactives: top-dose activity change, negative = inhibition, hits mostly inhibitors; 360,000 tested, 6.9% active; AID 588342;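 also: potency is read from the fitted curve at half-maximal effect; plate controls were vehicle for no effect and reference inhibitor for full effect; nearly all actives have a fitted effect of over 55% in size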
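Biochemical qHTS of compounds, final roughly 60 µM downward over six points, against 10 nM purified firefly luciferase using Km concentrations of substrates (10 uM D-luciferin, 10 uM ATP) in Tris acetate pH 7.5 buffer; luminescence output.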
RORg inh – ROR gamma (mouse) transcription inhibition; P51450; Drosophila S2 Gal4-RORgamma UAS-luciferase reporter, 20 h; Potency, µM (titrated, usually from 53.6 µM), for inactives: at the highest dose activity change, negative = inhibition, actives largely listed as inhibitors; 310,000 tested, 5.4% active; also: potency is read from the fitted curve at half-maximal effect; % is scaled to controls: 0 for no effect and ±100 for the full control effect; nearly all actives have a fitted effect of over 60% in size
Target sequence (P51450 whole entry, looked up, the tested form may be a part): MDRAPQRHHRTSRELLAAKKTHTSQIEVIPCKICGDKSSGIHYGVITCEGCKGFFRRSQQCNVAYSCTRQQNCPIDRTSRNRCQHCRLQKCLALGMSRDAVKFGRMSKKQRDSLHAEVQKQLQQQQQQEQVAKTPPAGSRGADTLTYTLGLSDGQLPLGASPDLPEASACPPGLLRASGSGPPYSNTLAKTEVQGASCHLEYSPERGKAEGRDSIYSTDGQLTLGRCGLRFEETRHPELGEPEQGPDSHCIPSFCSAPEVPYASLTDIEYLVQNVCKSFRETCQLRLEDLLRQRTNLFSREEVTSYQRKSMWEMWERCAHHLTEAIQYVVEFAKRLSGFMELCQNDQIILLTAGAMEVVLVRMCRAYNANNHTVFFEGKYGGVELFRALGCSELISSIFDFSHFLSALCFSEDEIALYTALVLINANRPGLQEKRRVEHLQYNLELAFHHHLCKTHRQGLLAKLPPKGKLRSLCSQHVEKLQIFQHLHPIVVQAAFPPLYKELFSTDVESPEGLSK
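Stable Schneider cell line, Gal4 DNA-binding domain fused to ROR gamma, UAS-luciferase. Cmpd 1 hr RT → CuSO4 700 uM final → 20 hr RT → luciferase reagent 10 min → luminescence.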
Rab9 prom act – Rab9 promoter activation. Huh7 Rab9 promoter-luciferase reporter, luminescence, 24 h. Potency, µM (highest dose often 9.22 µM), for inactives: top-dose activation, negative = inhibition, most hits filed as activators. 320,000 tested, 2.8% active. AID 485297; also: potency is read from the fitted curve at half-maximal effect; % of control where 0% means no effect; nearly all actives have a fitted effect of over 60% in size
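Steps: seed 1500 Huh7 Rab9-luc cells per well, rest 2 h at 37 °C; add compound in DMSO; incubate 24 h; add luciferase reagent, 10 min ambient; read luminescence.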
KCNH2 3.1 block – KCNH2 3.1 (human) potassium channel inhibition; activity change, % (tested at about 1.8 µM); U2OS KCNH2 3.1, thallium flux FluxOr; active compounds read low; 340,000 tested, 0.95% active;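 active = maximum activity change below -70%; inconclusive = maximum activity change from -70% to -50%; inactive = maximum activity change above -50%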;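 also: thallium influx rate constant from kinetic fluorescence after stimulation buffer; % is scaled to controls: 0 for no effect and ±100 for the full control effect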
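Measured as rate of thallium-driven FluxOr signal in transduced U2OS cells carrying the 3.1 channel, read kinetically for 2 min upon stimulation; values are rate constants scaled to DMSO control wells.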
An asterisk follows results filed as active; ? = inconclusive; · = not tested or not shown; & = joins results of further samples; [ ] = dose if it differs, or a comment. Unless noted, calls follow the shape of the dose curve; as a rule, active = well fitted curve in the direction sought with a large enough effect; inconclusive = small, poorly fitted or top-dose-only effect, or another doubt; inactive = no such curve, though single readings can be large; an effect the other way counts as inactive or inconclusive. These rows are one share of the data; rates above refer to the full screens.

SMILES	MBNL1-CUG inh	Mito fusion act	Menin MLL FP TR	NPC1 promoter act	Gal4-VP16 FLuc	ELG1 repair inh	FLuc modulator	RORg inh	Rab9 prom act	KCNH2 3.1 block
COc1ccc(NC(=O)CNC(=O)Cn2ccc3ccccc3c2=O)c(OC)c1	-2.9%	8.1%	13.5%	-3.8%	-1.1%	2.2%	3.0%&4.3%	-2.4%	-1.1%	-5.5
O=C(CC1OC(=O)c2ccccc21)c1ccco1 (stereo unspecified)	15.7%	1.5%	10.3%	5.9%	3.1%	6.9%	-1.7%	-73.7%	4.1%	-2.8
O=C(O)/C=C\C(=O)Nc1ccccc1C(=O)N1CCN(c2ccc(Cl)cc2)CC1	-4.6%	0.1%	11.0%	-0.5%	15.0%	0.3%	-0.8%	13.6%	-2.9%	2.6
COc1cccc(C(=O)Nc2cccc(C(=O)NC3=NN(c4c(Cl)cc(Cl)cc4Cl)C(=O)C3)c2)c1	?	0.1%	?	-1.8%	-14.2%	-0.9%	9.53µM*	3.0%	17.4%	2.8
COc1ccc(/C=C(/NC(=O)c2ccco2)C(=O)Nc2cccc(C(=O)O)c2)cc1	?	-9.6%	-11.2%	1.5%	-5.3%	19.6%	-14.1%	-2.4%	0.3%	-6.1
O=C(CNS(=O)(=O)c1ccc(Cl)cc1)NNC(=O)c1cccnc1	-4.4%	0.9%	2.5%	-0.1%	3.9%	-12.8%	-5.1%	-36.9%	12.0%	-7.9
O=C(CC1NCCNC1=O)Nc1ccc(Oc2ccccc2)cc1 (stereo unspecified)	-9.2%	-1.0%	-24.0%	5.4%	·	?	?	-10.5%[0.365 µM]	17.8%	-36.2
CC(=O)c1cccc(NC(=O)C(OC(=O)c2cccs2)c2ccccc2)c1 (stereo unspecified)	·	25.6%	0.0%	-1.2%	-4.1%	-18.1%	1.8%	23.5%	0.0%	-14.3
Cc1cccc(-c2nc(CS(=O)CC(=O)N3CCN(C)CC3)c(C)o2)c1 (stereo unspecified)	-2.1%	-1.3%	8.3%	-0.5%	1.4%	13.1%	-1.5%	-9.6%	3.5%	-4.7
Cc1ccc(-c2nc3ncccc3o2)cc1NC(=O)CC(C)C	·	3.6%	-2.8%	-2.8%	2.5%	6.6%	-1.3%	-11.8%	-1.0%	-4.4
O=C(CCCc1nc(-c2ccccc2Cl)no1)NCc1cccnc1	6.0%	4.7%	-1.6%	1.1%	-15.4%	-9.8%	-3.3%	?	8.3%	0.2
Cn1cccc1CNC(=S)Nc1ccccc1Cl	-7.5%	-3.5%	?	-1.3%	-6.9%	11.0%	-2.8%	6.31µM*	2.6%	14.3
O=C(O)CCCn1cc(NC(=O)c2ccc(Br)o2)cn1	3.9%	0.9%	1.4%	0.1%	-13.4%	5.5%	-3.2%	0.7%	0.3%	17.4
CCCCN(C(=O)Cn1nnc2ccccc21)C(C(=O)NCCOC)c1cccs1 (stereo unspecified)	-3.8%	-0.9%	11.4%	-0.6%	2.8%	3.4%	-0.1%	-2.7%	-7.7%	1.6
CC1(C)CC(NC(=O)c2cccc(F)c2)CC(C)(C)N1	-2.0%	8.5%	8.1%	0.8%	1.5%	18.3%	-9.7%	-2.9%	-0.1%	12.8
Cn1c(=O)c2c(nc(N3CCCCCC3)n2CCSc2nc3ccccc3o2)n(C)c1=O	-19.7%	13.2%	-7.5%	0.8%	-6.0%	-12.4%	5.4%	18.4%	-9.8%	7.5
Cc1cccc(NC(=S)NCCc2ccccc2)n1	1.0%	5.4%	2.7%	-10.3%	3.16µM*	?	?	0.562µM*	-2.2%	8.9
CCn1cc(C(=O)NCC2CCCO2)c(=O)c2cc(F)c(N3CCN(C)CC3)cc21 (stereo unspecified)	-9.6%	1.2%	·	-4.2%	-3.1%	1.6%	4.9%	-4.1%	-2.3%	5.3
Cc1c(-c2ccccc2)[n+](=O)c2c(n1[O-])CCCCC2	·	-4.4%	4.1%	-0.7%	-1.5%	1.2%	2.1%	-4.0%	2.5%	-3.8
CC(C)(C)C(=O)c1sc(Nc2ccccc2)nc1N	-3.7%	-7.8%	5.3%	2µM*	3.9%[0.365 µM]	?	5.36µM*	32.5%	2µM*	-4.2
Cn1c(OCc2ccc3c(c2)OCO3)nc2c1c(=O)n(Cc1ccc(Cl)c(Cl)c1)c(=O)n2C	-1.0%	0.8%	3.4%	0.5%	-1.2%	-2.8%	8.8%	19.3%	-2.8%	-4.5
CCC(C(=O)NCCCN1CCN(CCCNC(=O)C(CC)c2ccccc2)CC1)c1ccccc1 (stereo unspecified)	1.7%	0.6%	-7.0%	-1.0%	5.9%	-25.8%	0.8%	13.9%	-0.3%	-8.7
CCCCOC(=O)C1=C(N)N2C(=O)C(C)SC2=C(C(=O)OCC)C1c1ccc(O)c(OC)c1 (stereo unspecified)	-4.0%	-6.6%	·	-0.2%	-8.7%	-4.8%	0.2%	?	-8.6%	4.9
Cc1ccc(NCc2ccccc2O)c(C)c1	8.2%	0.7%	22.5%	0.0%	-4.5%	?	-3.6%	-0.2%	-1.0%	-28.4
CS(=O)(=O)NCC(c1cccnc1)N1CCN(c2ccccc2F)CC1 (stereo unspecified)	-2.5%	2.4%	·	0.5%	-3.0%	?	-1.9%	-5.5%	-4.6%	-2.4
Cc1[nH]c(=O)[nH]c(=O)c1S(=O)(=O)N1CCCC(C(=O)NCc2ccc3c(c2)OCO3)C1 (stereo unspecified)	-7.6%	1.0%	-22.5%	-3.7%	4.1%	-7.6%	1.4%	-3.8%	-4.6%	6.9
Cc1cc(C(=O)NCc2ccco2)cs1	-2.7%	-0.2%	11.1%	-2.1%	-1.2%	20.5%	5.1%[2.3 µM]	27.3%	11.5%	-2.1
CCOCCCn1c(=NC(=O)c2cccs2)c(C#N)cc2c(=O)n3cccc(C)c3nc21	?	-0.2%	·	0.2%	-13.5%	10.6%	-3.4%	-13.8%	-2.1%	-16.7
NC(=O)CN1CCCN(S(=O)(=O)c2ccc(Br)cc2)CC1	-3.8%	-1.1%	-2.6%	1.5%	-17.3%	1.7%	0.1%	-15.6%	10.9%	-11.7
O=Cc1cn(CC(=O)N2CCCc3ccccc32)c2ccccc12	-1.5%	-4.3%	7.5%	-3.6%	-0.4%	?	0.6%	-6.0%	0.4%	5.3
Cc1[nH]c2ccccc2c1C(c1ccccn1)N1CCC(C)CC1 (stereo unspecified)	16.0%	0.5%	-3.7%	-4.8%	-2.4%	?	5.3%	-12.3%	0.6%	9.1
COC(=O)c1cc(S(=O)(=O)N2CCN(c3cc(C)ccc3C)CC2)c[nH]1	0.6%	4.9%	23.1%	-9.3%	-10.5%	-6.3%	3.0%	?	-2.9%	7.4
COc1ccc(-n2nc(C(=O)NCC(=O)N3CCCCCC3)c3ccccc3c2=O)cc1Cl	?	15.2%	25.6%	3.4%	1.8%	-16.6%	3.38µM*	?	15.1%	11.0
COCCNCC(=O)NC12CC3CC(CC(C3)C1)C2	13.6%	-2.2%	1.1%[11.7 µM]	-5.0%	2.7%	1.4%	0.4%	15.1%	1.2%	-8.1
CC12CC3(C)CC(C)(C1)CC(C(=O)NCc1ccccn1)(C2)C3	-3.9%	11.7%	-16.7%	-0.1%	4.9%	-5.1%	-0.6%	-1.2%	1.9%	0.6
Cn1c(=O)n(C)c2cc(NC(=O)C(F)(F)F)ccc21	4.5%	-2.1%	-10.6%	-1.8%	-1.0%	15.5%	-0.8%	-17.5%	-7.8%	23.2
Cc1ccc(C)c(OCC(O)CN2CCC(C)CC2)c1C (stereo unspecified)	7.1%	1.5%	-2.8%	-0.5%	-1.3%	-12.4%	1.1%	-32.0%	-0.5%	-5.0
COc1ccc(/C=N/Nc2ncnc3sc4c(c23)CCCC4)cc1OC	·	-4.5%	22.6%	11.3%	3.98µM*	-26.1%	2.69µM*	3.16µM*	7.8%	-18.3
Cc1ccc(-n2ncc3c2CC(C)(C)CC3NC(=O)CCN2CCCCC2=O)cc1 (stereo unspecified)	10.6%	-1.0%	·	-0.6%	3.0%	-14.2%	0.6%	15.4%	10.1%	8.5
O=C(Nc1ccc(F)cc1)Nc1ccc(Oc2ncnc3cc(Cl)ccc23)nc1	6.8%	-1.0%	·	-5.0%	8.1%	11.7%	-1.2%	-2.7%	-5.0%	5.1
O=C(NCc1ccc2c(c1)OCO2)C1CC(=O)N(CCc2ccc(Cl)cc2)C1 (stereo unspecified)	-0.3%	-1.2%	·	-4.5%	-6.1%	-7.2%	1.6%	28.5%	10.8%	-5.6
CCN(C(=O)CCS(=O)(=O)c1cccc2nsnc12)c1cccc(C)c1	?	-9.6%	-15.6%	-0.4%	0.6%	-5.8%	-0.8%&-2.0%	-10.1%	-1.2%	11.0
COCCCNC(=S)N1CCCC(c2nc3cc(C)c(C)cc3[nH]2)C1 (stereo unspecified)	3.6%	-4.6%	10.1%	-3.9%	-13.1%	6.2%	?	-20.6%	-8.3%	-0.7

Screening results (PubChem BioAssay)
